# Screening data deposited in PubChem BioAssay by ICCB-Longwood Screening Facility, Harvard Medical School.
# Ab BasE inh = inhibitors of Acinetobacter baumannii siderophore enzyme BasE. purified BasE, fluorescence polarization binding displacement. inhibition, % (concentration not given with the values). 84,000 tested, 0.1% active;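 active = both replicates above 25% with normal brightness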;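 note: 0% = negative plate control signal and 100% = positive plate control signal; stock transfer was 100 nL into about 30 µL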
# LANA-nucl inh = LANA-nucleosome interaction inhibition | FITC-LANA1-23 / chicken nucleosome fluorescence polarization; active compounds read low | z-score (concentration not given with the values) | 51,000 tested, 0.3% active;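 active = both repeat wells score below -2 in polarization z-score versus plate sample wells, excluding overly bright wells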;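 note: 100 nL library stock added to about 30 µL; numbers are from one replicate; some results filed as inactive read as strong as hits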
#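 test system = FITC-LANA peptide and chicken nucleosomes | amount = 240 nM purified chicken nucleosomes (480 nM peptide binding sites), final | reagent = 50 nM FITC-LANA1-23 probe | medium = TEN-BT buffer, pH 7.5 | doses = single compound addition by pin transfer, 100 nL per well | timing = 10–45 min, room temperature | detection = fluorescence polarization | repeats = duplicate plates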
# * hit, by the source's call; . = no result given; & = joins results of further samples. Only part of the results is shown; the hit share may differ from the screen's.
SMILES,Ab BasE inh,LANA-nucl inh
O=C(CN1CCN(c2ccccc2)CC1)NC1CC1,-0.7,-1.5
Cc1ccc(NC(=O)Nc2sc(=S)n(C)c2C)cc1,1.4,.
Cc1ccc(C(c2nnnn2Cc2ccccc2)N2CCC(C)CC2)cc1 (stereo not given),1.9,-0.89
S=C(NCc1ccco1)N1CCN(c2cccc(Cl)c2)CC1,-0.9,-1.1
CC1=C/C(=N\Nc2ccnc3cc(Cl)ccc23)CC1,-0.9,.
CNC(=O)c1cccn1-c1nnc(N2CCCCC2)s1,2.8,.
CCN(CC)c1cc(C(F)(F)F)nc(-c2ccccn2)n1,.,-0.074
O=C1CCC(=O)N1CC(O)CCOc1ccc(OCCC(O)CN2C(=O)CCC2=O)cc1 (stereo not given),-1.5,0.95
COc1cccc(C(c2nnnn2CCC(C)C)N2CCN(Cc3ccccc3)CC2)c1OC (stereo not given),-0.5,-1.3
COC(=O)c1nc2ccccc2n1Cc1ccc(C)cc1,3.2,-1.3
CN1C(=O)C(Cc2ccccc2)(c2ccccc2)c2ccccc21 (stereo not given),1.1,.
CN(C)C1NC(=O)c2cc(-c3ccccc3)sc2N1 (stereo not given),-0.4,.
Cc1cccc(NC(=O)C(F)(F)F)c1C,0.8,0.33
CC(=O)Nc1ccc(S(=O)(=O)Nc2onc(C)c2C)cc1,.,0.3
Oc1ccc(/C=N/c2c(-c3ccco3)nc3ccc(Cl)cn23)cc1,1.4,0.042
COc1ccccc1C/C(C)=N/NC(N)=S,-2.6,.
Cc1cc(C(F)(F)F)nn1CC(=O)N(C)c1ccccc1,1.4,0.62
COC(=O)C1=C(C)N(C)C(C)=C(C(=O)OC)C1c1ccccc1,0.5,0.52
O=C(Cc1cccs1)NCCC1=CCCCC1,0.5,-1.1
CN(C(=O)CSc1nc2ccccc2[nH]1)C1CCS(=O)(=O)C1 (stereo not given),-3.1,.
Cc1cc(-c2cccs2)c2c(N)c(C(=O)c3ccc4c(c3)OCO4)sc2n1,5.6,-3.2
CN(C)CCN1C(c2ccccc2)=CC(=C2C(=O)N(C)C(=O)N(C)C2=O)C2=C1CCCC2,-0.9,0.37
S=C1NC2(CCCCC2)NN1c1ccccc1,-0.6,0.25
O=c1[nH]c2ccccc2c(=O)n1NS(=O)(=O)c1ccc2ccccc2c1,-4.9,2
O=C(NCc1cccnc1)c1cccc(NC(=O)N2CCCCc3ccccc32)c1,1.4,-0.6

# 6 compounds out of the list, sorted by molar mass, ascending:
SMILES,Ab BasE inh,LANA-nucl inh
O=C(Cc1cccs1)NCCC1=CCCCC1,0.5,-1.1
O=C(CN1CCN(c2ccccc2)CC1)NC1CC1,-0.7,-1.5
COC(=O)c1nc2ccccc2n1Cc1ccc(C)cc1,3.2,-1.3
CN(C(=O)CSc1nc2ccccc2[nH]1)C1CCS(=O)(=O)C1 (stereo not given),-3.1,.
O=c1[nH]c2ccccc2c(=O)n1NS(=O)(=O)c1ccc2ccccc2c1,-4.9,2
CN(C)CCN1C(c2ccccc2)=CC(=C2C(=O)N(C)C(=O)N(C)C2=O)C2=C1CCCC2,-0.9,0.37

# The list continues.
SMILES,Ab BasE inh,LANA-nucl inh
COC(=O)c1cc(COC(=O)c2ccc3ncsc3c2)oc1C,-0.5,.
CC(CN1CCOCC1)OC(=O)C1c2ccccc2Oc2ccccc21 (stereo not given),1.1,-0.24
CCC(=O)N1c2ccccc2NC2=C(C(=O)CC(c3ccco3)C2)C1c1ccco1 (stereo not given),-5.7,0.49
O=C(Cc1ccc(-c2ccccc2)cc1)OCC(=O)N1CCCC1,-1.5,.
CC1CCCN(C(=O)CN2CCN(C(=O)c3ccco3)CC2)C1 (stereo not given),0.4,-0.18
CC(=O)Nc1cc(OC(C)=O)c2nonc2c1OC(C)=O,32,0.28
O=C(/C=C/N(c1ccccc1)c1ccccn1)C(F)(F)F,0.8,.
Cc1cc(C(=O)CSc2nc3cc(S(=O)(=O)N(C)C)ccc3o2)c(C)n1-c1ccc2c(c1)OCO2,-3.6,.
C=C(C)Cn1c(SCC(=O)N/N=C/c2ccc(OC)cc2)nc2ccccc2c1=O,-2.1,-0.024
Cc1ccc(S(=O)(=O)N(C(F)F)C(C)(C)C)cc1,0.1,.
CNC(=O)CSc1nnc(Nc2ccc(C(C)C)cc2)s1,2.6,.
O=C(c1cc2sccc2n1Cc1ccccc1)N1CCCCC1,1.7,-0.099
CN(C)CCN1C(=O)c2ccccc2C1=O,-1.0,-0.4
Cn1c(-c2cc3ccc(OC(=O)c4ccco4)cc3oc2=O)nc2ccccc21,-1.1,2.1
CSc1ccccc1-c1nc(-c2ccccc2)no1,1.3,-1.8
CC(C)=NNc1ccc2nnc(-c3ccccc3)n2n1,0.6,-0.69
Cc1c(C(=O)N2CCCCC2)c(S(=O)(=O)N2CCC(C)CC2)c(C)n1C,2.5,-0.53
NC(Cc1c[nH]c2ccccc12)C(=O)NCc1ccccc1 (stereo not given),1.2,-0.3
O=C(c1ccc(Cl)nc1)N1CCN(C(c2ccccc2)c2ccccc2)CC1,0.7,.
Cn1c(=S)n(CN2CCOCC2)c2ccccc21,-0.6,-1
CC12CCC(=O)N1C(C(=O)OCc1nnc(-c3ccccc3)o1)CS2 (stereo not given),1.2,.
COC(=O)c1c(N)c(C#N)c(C)n1-c1ccccc1,2.6,-0.82
CCc1ccc(C(=O)c2cncc(Br)c2)cc1,5.0,.
CCN(CC)CC1CCCNC1 (stereo not given),3.7,-0.35
CCOc1ccc(NC(=O)Cn2c(C(=O)OC)ccc2-c2ccco2)cc1,1.7,-0.51

# The list continues.
SMILES,Ab BasE inh,LANA-nucl inh
Cc1ccc(Oc2ncccc2NC(=O)Nc2ccccc2)c2c1CCC2,2.1,.
Cc1ccc2c(c1)-c1onc(C(=O)N(CCC(C)C)Cc3ccco3)c1CO2,1.1,-0.96
CC(C)(O/N=C(\C(=O)N[C@@H]1C(=O)N2C(C(=O)[O-])=C(C[n+]3ccccc3)CS[C@H]12)c1csc(N)n1)C(=O)O,.,0.38
CCC(C)Cn1c(COC)nc2ccccc21 (stereo not given),0.7,-0.22
N#Cc1ccc(OCc2ccc(F)cc2)cc1,1.6,0.17
O=c1ccc2cc(S(=O)(=O)N3CCCC3)ccc2o1,-0.5,-0.26
COC(=O)C(F)C(OC)(OC)OC (stereo not given),-0.8,.
CCOC(=O)c1csc(-c2ccc(C(F)(F)F)cn2)n1,0.5,-0.66
CC(=O)OC(C(=O)n1nc(C)cc1C)c1ccccc1 (stereo not given),-1.2,-0.022
CC1=C(C#N)C(=O)N(CCc2ccccc2)C(=O)/C1=C/c1ccc(-c2ccc(S(N)(=O)=O)cc2)o1,6.9,0.24
CC(OC(=O)C1CCCCC1)c1nc2ccccc2[nH]1 (stereo not given),0.8,-0.13
CC(c1ccco1)N(C(=S)Nc1cccc(Cl)c1)C1CCCCC1 (stereo not given),1.4,-0.88
O=c1[nH]c(CSC2=NCCCN2)nc2ccccc12,2.6,-0.074
COc1cccc(-c2nc(CS(=O)(=O)CC(=O)NC(C)c3ccccc3)c(C)o2)c1 (stereo not given),-0.6,-0.41
CN(C(=O)CSc1ncccc1C(=O)O)C1CCCCC1,-1.9,.
CSc1nc2ccccc2c(=O)n1C,-0.3,.
c1cncc(CNCc2ccc3c(c2)OCO3)c1,-3.0,1.7
CC1=NN(c2cccc(C(F)(F)F)c2)C(=O)C1,2.7,.
CCC(C)NC(=S)Nc1ccccc1 (stereo not given),-0.2,2
CCn1c(SCC(N)=O)nnc1C(C)Oc1ccc(C)cc1C (stereo not given),-0.4,-1.3
O=C1CN(C(=O)C2COc3ccccc3O2)c2ccccc2N1 (stereo not given),-0.2,-0.73
CCOC(=O)c1cnn(-c2ccc(C(F)(F)F)cn2)c1N,0.6,.
CCOc1ccc(NC(=O)CCC(=O)Nc2cc(OC)c(NC(=O)c3ccco3)cc2OC)cc1,-3.0,0.42
COc1cc(NC(=O)N(C)C)cc(OC)c1OC,3.8,0.81
CC(=O)NC1C(Oc2ccccc2)OC(CO)C(O)C1O (stereo not given),2.5,-0.006

# Single records, as listed above:
# CN(C(=O)CSc1ncccc1C(=O)O)C1CCCCC1 as listed: Ab BasE inh = -1.9; LANA-nucl inh = .
# CCOC(=O)c1cnn(-c2ccc(C(F)(F)F)cn2)c1N as listed: Ab BasE inh = 0.6; LANA-nucl inh = .
# COc1cccc(-c2nc(CS(=O)(=O)CC(=O)NC(C)c3ccccc3)c(C)o2)c1 (stereo not given) as listed: Ab BasE inh = -0.6; LANA-nucl inh = -0.41

# The list goes on:
SMILES,Ab BasE inh,LANA-nucl inh
Cc1onc(-c2c(Cl)cccc2Cl)c1C(=O)N[C@@H]1C(=O)N2[C@@H]1SC(C)(C)[C@@H]2C(=O)O,-0.6&1.0,0.6&-0.3&-0.84
CC1CCCCN1C(=S)Nc1ccc(S(=O)(=O)N2CCCCC2)cc1 (stereo not given),-0.1,.
CC1CCN(S(=O)(=O)c2ccc(C(=O)Nc3sccc3C(N)=O)cc2)CC1,1.1,0.74
C=CCSc1nsc(N)n1,-0.7,0.45
CCSc1nc2[nH]c(=O)cc(O)c2s1,1.7,0.39
COc1ccc(-c2c[n+](=O)c3c(n2[O-])CCC3)cc1,-0.6,-0.026
CC1CCCC(C)N1C(=O)COc1ccc(C(=O)N/N=C/c2ccncc2)cc1 (stereo not given),-0.2,.
COC(=O)C(CC(C)C)NC(=O)c1c(-c2c(Cl)cccc2Cl)noc1C (stereo not given),0.3,-0.28
COC(=O)c1ccc(OCC(O)CN(Cc2ccccc2O)C2CCCCC2)c(OC)c1 (stereo not given),-0.1,.
CN1CCC(N(C)Cc2cc(=O)oc3cc4c(cc23)CCC4)CC1,-0.6,.
O=C(Nc1ccc(S(=O)(=O)N2CCOCC2)cc1)c1ccccc1,4.5,.
CN1C(=O)Cc2cc(S(=O)(=O)NCCN3CCN(c4ccccc4F)CC3)ccc21,-1.4,-1.5
COc1ccc(CSc2ncn[nH]2)cc1,2.2,0.8&-1
O=C(CONC1=NCCCCC1)Nc1ccc(Oc2ccccc2)cc1,1.9,.
O=C1c2ccccc2C(=O)N1CC(=O)N(c1ccccc1)c1ccccc1,-2.8,.
CNc1nc(N)c(C(=O)c2ccccc2)s1,-1.1,0.73
CCCN(CCC)C(=O)Cn1c(=O)n(CCCC(=O)NCc2ccc(C)cc2)c(=O)c2ccccc21,-0.9,0.31
COC(=O)c1cccc(C(=O)Oc2ccc(OC(=O)c3cccc(C(=O)OC)n3)c(Cl)c2)n1,1.4,.
CCOc1ccc(NC(=O)Cn2c(=O)oc3cc(S(=O)(=O)N4CCCC4)ccc32)cc1,-2.1,-0.17
CC(C1CC2CCC1C2)n1c(COc2ccccc2F)nnc1SCCC#N (stereo not given),1.1,.
CC1(C)CC(=O)C(C=NCc2cccnc2)=C(O)C1,1.7,.
COc1cccc(NC(=O)Cn2c(=O)n(Cc3ccc(C(=O)NCc4ccco4)cc3)c(=O)c3ccccc32)c1,-0.4,0.6
O=C1NC(=O)C(=CN2CCN(S(=O)(=O)/C=C/c3ccccc3)CC2)C(=O)N1,-1.9,.
Cc1cccc(N(Cc2cc3ccccc3[nH]c2=O)S(C)(=O)=O)c1,-1.3,-0.76
CC(C)(C)NC(=O)CSc1nnc(NC(=O)C2CC(=O)N(c3ccc(F)cc3)C2)s1 (stereo not given),-1.0,-0.57

# Additional results:
SMILES,Ab BasE inh,LANA-nucl inh
Cc1nccc(-c2cccc(NN=C(C#N)C#N)c2)n1,2.7,0.18
O=S(=O)(c1ccc(N2CCC(CNc3nc4ccccc4s3)CC2)cc1)N1CCOCC1,-2.5,2.2
Cc1nc2cc(C(F)(F)F)ccc2n1C1CCN(CC(=O)N2CCCC2)CC1,-2.4,-0.0005
O=C(O)/C=C/c1nc2ccccc2o1,-1.8,.
CCCCN1C(=O)CC(C(=O)NC2CCCCCC2)C1c1ccc(OC)cc1 (stereo not given),4.3,.
N#CCOc1nc(OCC#N)nc(OCC#N)n1,0.8,1.2
COCCNC(=O)c1cc2nc3c(c(C(F)(F)F)n2n1)CCc1ccccc1-3,1.4,0.4
CC1(C)CC(=O)C2=C(C1)NC1=C(C(=O)CC(C)(C)C1)C2c1cccc(O)c1,0.8,0.21
CC(NC(=O)Cc1ccccc1)C(c1ccccc1)N1CCOCC1 (stereo not given),1.4,.
CCOc1ccc(CNC(=O)C2CCN(c3nc4ccccc4n4c(C)nnc34)CC2)cc1OC,2.3,-0.84
C=CCn1c(=S)sc2c(=O)n(CCOc3cccc(Br)c3)cnc21,0.1,.
COc1cccc(CNC(=O)C2CCN(S(=O)(=O)c3ccccc3)CC2)c1,1.1,.
O=C1c2ccccc2C(=O)N1Nc1ccc(N2CCOCC2)cc1,5.2,.
COc1cc(OC)cc(C(=O)OCC(=O)c2cc3ccccc3o2)c1,-7.2,.
Cn1ccnc1C(N)c1ccccc1 (stereo not given),1.3,.
C(=N\n1c(-c2cc3ccccc3o2)csc1=NCC1CCCO1)/c1ccc2c(c1)OCCO2 (stereo not given),8.3,.
Oc1ccc2oc3c(c2c1C=Nc1ccccc1)CCCC3,3.9,.
c1ccc(C2NCCc3sccc32)cc1 (stereo not given),1.7,-1.1
N#Cc1ccccc1Sc1ccccc1C(=O)NN1C(=O)NC2(CCCCC2)C1=O,0.0,.
C=CCn1sc(N)c(C(=O)OCC)c1=S,3.8,.
